Compound activity as filed in PubChem.
Calb FLC: affects C. albicans growth with fluconazole; growth inhibition, % (no concentration beside the values); hit rate 0.57% among 300,000; C. albicans CaCi-2 (fluconazole-resistant clinical isolate) + fluconazole, Alamar Blue growth, 48 h;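 active means most replicates above 75%; inconclusive means exactly half above 75%; inactive means most below 75%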;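 further: all wells also contain fluconazole at 8 µg/ml as a sub-toxic cotreatment; 0% = median of DMSO wells and 100% = median of geldanamycin control wells; wells of about 8 µL received 7.5 nL stock; the first replicate is given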
T cruzi repl: blocks replication of Trypanosoma cruzi. T. cruzi beta-gal in NIH3T3, luminescence, 90 h. inhibition, % (test concentration not listed). hit rate 1.4% among 300,000. AID 1885;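 active means mean inhibition across valid replicates above about 55%, limit read from the data; inconclusive means mean below that limit but half or more replicates reach it; inactive means mean below it, under half of replicates reach it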;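 further: signal also drops with host cell toxicity which is not excluded here; 0% = plate median of DMSO wells and 100% = zero luminescence signal; higher percent means less beta-gal luminescence so fewer parasites; stock transfer was 50 nL into about 50 µL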
ALR H2O2 inh: human ALR oxidase inhibition via reduced H2O2 | P55789 | purified ALR, DTT oxidation, H2O2 HRP-luminol luminescence | inhibition, % (concentration not given with the values) | hit rate 3.8% among 290,000 | AID 485317;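 active means mean and each replicate at 75% or more; inconclusive means only one of the two met; inactive means neither met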;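 further: stock transfer was 7.5 nL into about 7.5 µL; 0% = neutral wells and 100% = wells with inactivated enzyme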
Target sequence (P55789 whole entry, looked up): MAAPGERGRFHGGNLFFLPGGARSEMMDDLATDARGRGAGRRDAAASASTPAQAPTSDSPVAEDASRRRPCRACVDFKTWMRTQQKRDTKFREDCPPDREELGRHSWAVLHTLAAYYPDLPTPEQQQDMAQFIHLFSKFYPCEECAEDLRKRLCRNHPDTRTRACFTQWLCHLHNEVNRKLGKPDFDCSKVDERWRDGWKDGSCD
MLL AF4-AF9 inh: inhibitors of human MLL-AF4/AF9 interaction | P42568 | AlphaScreen, biotin-AF4 peptide binding to FLAG-AF9 | inhibition, % at 10 µM | hit rate 0.47% among 350,000;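 active means every replicate reaching a set inhibition limit, whatever the replicate mean, cut at about 25% in these data; inconclusive means mean inhibition reaches that limit but some replicates miss it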;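 further: 0% = plate neutral control median and 100% = total signal loss; the record names both 10 and 1 µM as test concentration; the first replicate is given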
Target sequence (P42568 whole entry, looked up): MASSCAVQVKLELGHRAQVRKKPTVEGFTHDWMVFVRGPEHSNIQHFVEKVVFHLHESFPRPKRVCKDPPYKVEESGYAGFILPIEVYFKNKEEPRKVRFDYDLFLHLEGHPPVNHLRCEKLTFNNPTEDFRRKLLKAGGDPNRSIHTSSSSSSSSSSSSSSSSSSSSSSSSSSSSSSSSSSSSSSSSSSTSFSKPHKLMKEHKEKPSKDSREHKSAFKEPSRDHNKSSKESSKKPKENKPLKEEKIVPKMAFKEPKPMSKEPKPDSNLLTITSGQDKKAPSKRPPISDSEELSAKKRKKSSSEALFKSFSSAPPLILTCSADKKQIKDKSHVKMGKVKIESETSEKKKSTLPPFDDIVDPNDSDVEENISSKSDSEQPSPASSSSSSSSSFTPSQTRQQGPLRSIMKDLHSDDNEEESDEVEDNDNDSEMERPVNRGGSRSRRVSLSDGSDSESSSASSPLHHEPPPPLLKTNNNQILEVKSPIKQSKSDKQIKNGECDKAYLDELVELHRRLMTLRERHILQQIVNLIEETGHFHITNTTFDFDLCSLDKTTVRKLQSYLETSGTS
RanGTP-Impb inh: disruptors of Ran-importin-beta complex formation – biochemical, FRET, CFP-Ran, YFP-importin-beta, homogeneous, primary screen; cell-free CFP-Ran/YFP-importin-beta FRET ratio; inhibition, % (test concentration not listed); hit rate 1.1% among 300,000;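 active means most replicates above 15%; inconclusive means exactly half above 15%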;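 further: 0% = DMSO wells and 100% = Ran loaded with GDP instead of GTP; wells of about 40 µL received 100 nL stock; the first replicate is given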
rRNA inh HTS: inhibits bacterial ribosomal RNA function over humanized ribosomes | GFP signal change (wild-type ribosome), % (concentration not given with the values) | hit rate 1.6% among 350,000 | E. coli WT GFP vs humanized-ribosome RFP mutants, fluorescence, 24 h; active compounds read low; DMSO median 0, no signal -100 | AID 720706;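 active means significant combined selectivity score with lowered wild-type GFP, culture density cut under 30%, mutant RFP and density less affected; inactive means any of these conditions unmet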; further: one replicate is shown; some compounds called inactive have numbers as strong as hits
Beta cell apopt: blocks beta cell apoptosis; hit rate 0.8% among 300,000; protection from apoptosis, % (concentration not given with the values); INS-1E cytokine-induced death, ATP luminescence, 48 h; percent of positive-control rescue, neutral wells zero;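 active means all replicates at 75% or more, or half of them and the mean; inconclusive means half reach 75% but not the mean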;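 further: 0% = cytokine-treated negative control wells and 100% = positive control rescue; higher means more ATP so stronger rescue from cytokine killing; wells of about 40 µL received 100 nL stock; the first replicate is given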
FGF22 binding: shifts melting point of recombinant human FGF22. Q9HCT0. recombinant FGF22 thermal shift, SYPRO orange fluorescence; percent of sucrose octasulfate shift, DMSO zero. calls only at 9.99 µM. hit rate 1.5% among 340,000. AID 651658;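 active means melting point raised past a set limit in the mean and every replicate; inconclusive means no clear call; three in four hits are not shown here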
Target sequence (Q9HCT0 whole entry, looked up): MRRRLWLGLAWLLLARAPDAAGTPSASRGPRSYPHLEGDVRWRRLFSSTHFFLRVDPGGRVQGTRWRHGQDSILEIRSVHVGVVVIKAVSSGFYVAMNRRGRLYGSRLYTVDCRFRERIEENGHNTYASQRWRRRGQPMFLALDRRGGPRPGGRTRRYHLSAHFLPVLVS
rRNA inh HTS OD600: second read-out of rRNA inh HTS, no call of its own (marks repeat the call); OD600 change, %; measured here: OD600 growth;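 optical density of the mix in the first replicate; 0 = DMSO median and -100 = no signal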
rRNA inh HTS RFP: further read-out of rRNA inh HTS, marked with its call; RFP signal change, %; measured here: RFP humanized mutant strains;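 first replicate; 0 = DMSO median and -100 = no signal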
* marks the source's active call; other numbers are inactive results; i = inactive; ? = inconclusive; . = not tested or not shown; & = joins results of further samples. Not all compounds are listed, so the mix of outcomes need not match the whole.

SMILES	Calb FLC	T cruzi repl	ALR H2O2 inh	MLL AF4-AF9 inh	RanGTP-Impb inh	rRNA inh HTS	rRNA inh HTS OD600	rRNA inh HTS RFP	Beta cell apopt	FGF22 binding
CCOC(=O)c1oc2cc(O)c(CC)cc2c(=O)c1-c1ccc2c(c1)OCCO2	8	2	0	8.3	1.0	-26	-39	-3.8	5	i
CCOc1ccc(C(=O)Nc2cccc(C(=O)O)c2)cc1Cl	-4	10	-1	-2.6	2.6	-7	-8	-3.7	.	i
O=C1[C@@H]2[C@H]3CC[C@H](C3)[C@@H]2C(=O)N1O	1	-22	-4	-2.2	1.3	32	19	4.1	-14	i
CCOC(=O)N1CCC(NC(=O)c2cc(S(=O)(=O)N3CCC4(CC3)OCCO4)ccc2F)CC1	1	-9	99*	.	-0.7	.	.	.	-1	.
O=C(CCNC(=O)c1ccccc1)NNC(=O)c1ccc(F)cc1	.	.	-3	4.2	.	4	14	-0.3	-3	i
CCOC(=O)c1sc(NC(=O)c2ccco2)nc1-c1ccccc1	4	-5	-5	-7.9	3.7	0	15	3.3	8	i
C/C=N/NC(=O)c1cc(Br)ccc1O	-26	-14	6	.	1.6	.	.	.	-2	.
COc1cccc(CNC(=O)C2CCCN(S(=O)(=O)c3cnc[nH]3)C2)c1 (centres undefined)	-8	11	72	-1.4	5.2	3	14	6.0	.	i
CC1(NC(=O)Nc2cccc(Br)c2)CCS(=O)(=O)C1 (centres undefined)	.	.	.	-3.0	.	4	8	-1.6	0	i
Cc1ccc(S(=O)(=O)NCC(=O)N2CCCC2)cc1	-15	-18	-10	.	0.3	.	.	.	-11	.
COc1ccc(/C=N/NC(=O)c2cccc(O)c2)cc1Cn1nc(C)c([N+](=O)[O-])c1C	8	-3	16	1.5	1.4	.	.	.	5	i
COc1cccc(-c2nc(CS(=O)(=O)CC(=O)NC3CCCC3)c(C)o2)c1	3	2	98*	-1.5	-2.0	6	3	1.3	-3	i
CC(C)CC(OC(=O)c1nsc(Cl)c1Cl)C(=O)NCC1CCCO1 (centres undefined)	-1	-5	.	0.1	7.4	13	13	3.3	6	i
NC(=S)N/N=C/c1coc2c(ccc3ccccc32)c1=O	4	-7	-4	.	-3.5	.	.	.	-1	.
COc1ccc(S(=O)(=O)NCCc2nnc3ccc(SCC(=O)Nc4nc(C)cs4)nn23)cc1	-1	15	89*	.	0.5	.	.	.	-2	.
O=c1ccc(-c2ccc(S(=O)(=O)N3CCN(c4cccc(Cl)c4)CC3)o2)n[nH]1	-25	5	2	-12	1.5	10	14	-0.2	-5	i
NC1=C(c2ccccc2)C(=O)NC1=O	-5	-20	-1	-1.0	3.5	10	16	-0.7	.	i
CN(/C=C/C(=O)C(F)(F)F)Cc1ccccc1	-4	-3	2	.	1.6	.	.	.	-2	.
O=C(Cc1c[nH]c2ccccc12)NC1(C(=O)NC2CCCC2)CCCCC1	9	-9	.	-0.1	-2.6	-2	-7	-3.4	-1	i
COC(=O)N(NC(=O)C(O)(c1ccccc1)c1ccccc1)c1ccc(C)cc1	-14	5	2	.	0.3	.	.	.	.	.
O=C(NCCN1CCOCC1)c1cccc(S(=O)(=O)NCc2ccccc2)c1	10	-1	-1	7.3	-3.5	11	6	-1.3	-2	i
COc1ccc(C2/C(=C(\O)c3ccc4c(c3)OCCO4)C(=O)C(=O)N2CCCN(C)C)cc1 (centres undefined)	-1	-8	-2	.	1.6	.	.	.	0	.
COc1ccc(N2CCN(Cc3nc4ccccc4c(=O)[nH]3)CC2)cc1	9	1	62	.	7.4	.	.	.	-1	.
Cc1c(Cl)cccc1NC(=O)COc1ccc(S(=O)(=O)N2CCOCC2)cc1	4	-20	-13	.	?	.	.	.	-3	.
COc1ccccc1NC(C)C(=O)N/N=C/c1cccs1 (centres undefined)	2	-9	30	3.6	0.1	5	7	2.5	-3	i
COc1ccc(NC(=O)N(C)C[C@H]2Oc3ccc(NS(=O)(=O)c4ccc(OC)cc4)cc3C(=O)N([C@H](C)CO)C[C@@H]2C)cc1	.	.	-7	-1.7&-0.5	.	1&4	-3&-1	-0.4&-6.0	1	i
COc1cc2c(cc1OC)CN(C(=S)Nc1c(C)cccc1C)CC2	-1	8	.	.	7.1	.	.	.	-4	.
COC(=O)CC1C(=O)NCCN1C(=O)c1ccccc1 (centres undefined)	-7	-23	6	.	2.6	.	.	.	-6	.
CCCCn1c(SCC(=O)NCC2CCCO2)nc2ccc(N3CCOCC3)cc2c1=O (centres undefined)	?	21	-20	.	?	.	.	.	1	.
CCCCC(CC)C1OCC(CN2CCCCC2)O1 (centres undefined)	3	-19	-11	0.2	1.3	22	12	-0.1	2	i

Structures listed above printed as active in ALR H2O2 inh.
Molecule	ALR H2O2 inh	MLL AF4-AF9 inh	RanGTP-Impb inh	rRNA inh HTS	rRNA inh HTS OD600	rRNA inh HTS RFP	FGF22 binding
CCOC(=O)N1CCC(NC(=O)c2cc(S(=O)(=O)N3CCC4(CC3)OCCO4)ccc2F)CC1	99*	.	-0.7	.	.	.	.
COc1cccc(-c2nc(CS(=O)(=O)CC(=O)NC3CCCC3)c(C)o2)c1	98*	-1.5	-2.0	6	3	1.3	i
COc1ccc(S(=O)(=O)NCCc2nnc3ccc(SCC(=O)Nc4nc(C)cs4)nn23)cc1	89*	.	0.5	.	.	.	.

Continued.
SMILES	Calb FLC	T cruzi repl	ALR H2O2 inh	MLL AF4-AF9 inh	RanGTP-Impb inh	rRNA inh HTS	rRNA inh HTS OD600	rRNA inh HTS RFP	Beta cell apopt	FGF22 binding
CC(C)c1ccc(S(=O)(=O)c2nnn3c2nc(N2CCCCC2)c2ccccc23)cc1	-2	44	.	.	4.8	.	.	.	-3	.
CC(C)[C@H](NC(=O)c1c(F)cccc1F)C(=O)OCC(=O)NC(=O)NC1CCCC1	-2	-8	2	-0.2	3.4	9	22	2.4	.	i
COc1ccc(-c2noc(CCC(=O)NCCc3ccccc3)n2)cc1OC	-6	-6	-4	-0.2	4.7	1	-4	-0.4	0	i
O=C(CNS(=O)(=O)c1ccc(Br)cc1)N1CCN(Cc2ccccc2)CC1	3	5	-10	-8.0	0.5	-1	-5	2.4	.	i
COc1ccc(CC(=O)OCC(=O)NCc2ccco2)cc1	.	-9	-6	0.4	-2.6	7	13	0.3	-5	i
Cc1nn(C(=O)CNS(=O)(=O)c2ccccc2)c(C)c1Sc1ccc(Cl)cc1	-7	1	-1	.	-1.7	.	.	.	-10	.
CC(Oc1ccccc1)C(=O)N1CCC2(CC1)Oc1ccc(F)cc1C(=O)C21CC(c2cccnc2)=NO1 (centres undefined)	63	-1	.	6.0	2.8	-2	-5	7.6	-4	i
O=C(CO/N=C/c1ccccc1OC(F)F)NCc1cccs1	-1	-3	-7	.	3.7	.	.	.	4	.
CC(C)CNC(=O)c1cnn2c(C(F)(F)F)cc(C(F)(F)F)nc12	-1	10	2	-0.7	0.4	-1	-11	-3.2	-7	i
Cc1cc(C)cc(NC(=S)N2CCN(S(=O)(=O)c3ccccc3)CC2)c1	5	.	-8	-4.4	.	-4	-14	-2.1	-1	i
Cc1ccc(C)c(NC(=O)NNC(=O)c2ccc3ccccc3c2O)c1	-3	5	-10	-0.8	-1.7	7	7	-0.5	-9	i
Cc1ccc2sc(NC(=O)c3cccc(N4C(=O)CCC4=O)c3)nc2c1C	-2	-10	2	-4.1	4.5	3	3	-1.6	1	i
Cc1cccc(Nc2nnc(SC(C)C(=O)NC3CC3)s2)c1 (centres undefined)	.	.	-1	?	.	1	2	0.2	-2	i
Clc1cc(Cl)cc(Nc2ncnc(-n3cccc3)n2)c1	1	19	-3	4.2	?	4	16	5.4	13	.
Cc1cc(C)c(NC(=O)NC(=O)C(Cl)(Cl)Cl)c(C)c1	-5	-22	.	3.8	2.5	.	.	.	-6	i
O=C(Cn1nnc(-c2ccc(NC(=O)c3ccccc3F)cc2)n1)NCc1ccc(F)cc1	-18	-12	-12	5.0	3.2	9	4	-3.4	-2	i
O=S(=O)(Cc1ccc(Cl)cc1)c1ccccc1-c1nnc(-c2ccc(Cl)cc2)o1	-12	-10	-1	.	-1.8	.	.	.	5	.
COc1ccc(N2C(=O)CC(N3CCN(S(=O)(=O)c4cc(C)ccc4C)CC3)C2=O)cc1 (centres undefined)	-1	-2	-19	2.4	0.0	-6	-19	3.2	-4	i
CCC(C)[C@H](NC(=O)[C@@H]1Cc2ccccc2CN1)C(=O)NCc1ccc(OC)cc1 (some centres undefined)	8	8	8	-0.4	6.8	3	-8	-15	-7	i
CCN(CC)CCn1c2c(c(SCC(=O)Nc3cccc4ccccc34)nc1=O)CCCC2	-2	2	96*	1.8	5.3	3	-7	0.4	.	i
c1ccc(-c2nc(NCCCN3CCOCC3)c3ccccc3n2)cc1	1	22	34	.	-0.2	.	.	.	-1	.
O=S(=O)(Nc1cc(C(F)(F)F)ccc1N1CCOCC1)c1ccc2ccccc2c1	27	11	-21	.	2.2	.	.	.	11	.
COc1cccc(/C=N/NC(=O)c2nnn(-c3nonc3N)c2-c2cccs2)c1	7	21	-5	0.9	5.1	7	1	-4.4	-4	i
Cc1c(Cl)cccc1NC(=O)COC(=O)CN1C(=O)NC(C)(C)C1=O	1	-21	.	13	-2.7	6	6	5.5	-6	i
COc1ccc(N(CC(=O)NCCSC(C)(C)C)S(C)(=O)=O)c(OC)c1	-7	-14	-1	3.2	0.8	5	3	0.6	-1	i
CCCN(CCC)CCN1C(=O)C2C(C(=O)Nc3cccc(SC)c3)C3C=CC2(O3)C1C(=O)NC1CCCCC1 (centres undefined)	-3	16	-6	-0.6	-3.6	0	8	-1.3	2	i
CC1CC(CCC(=O)NC(=S)Nc2ccc(Cl)cn2)C(=O)O1 (centres undefined)	1	4	-1	-3.7	?	-2	-4	-0.4	0	i
COc1cc(NS(C)(=O)=O)c(OC)cc1NC(=O)c1ccccc1	-14	-4	.	.	-4.5	.	.	.	3	.
Cc1ccc2oc(/N=C(\N)NC(=O)C3CC3)nc2c1	-8	-28	-1	-0.6	2.4	.	.	.	-3	i
Cc1ccc(S(=O)(=O)N2CCN(C(=O)c3ccccc3OCc3c(C)noc3C)CC2)cc1C	-3	32	-20	-1.6	1.2	1	1	-0.2	4	i
CCOc1ccc(C2/C(=C(\O)c3cccc(OC)c3)C(=O)C(=O)N2c2ccccn2)cc1OC (centres undefined)	1	8	5	10	3.1	-1	-4	-2.3	-3	i
CC(OC(=O)c1ccncc1)C(=O)Nc1ccc([N+](=O)[O-])cc1Cl (centres undefined)	30	-7	.	-0.6	0.2	7	4	-2.4	-4	.
